NPYLR7 agonist – activates Aedes aegypti NPYLR7 receptor. HEK293T NPYLR7/Galpha15, GCaMP6s calcium fluorescence. activation, % at 10 µM. 0.15% of 270,000 active; in the data active = activation above about 40%;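 also: 0% = vehicle and 100% = reference agonist at the receptor; some compounds past the cut are filed as inactive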
NPYLR7 agonist max-min – further read-out of NPYLR7 agonist, marked with its call; activation, %; measured here: Max-Min RFU normalised activation; some inactives read as strong as hits;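 span of the calcium signal over five minutes; 0% = vehicle and 100% = native peptide agonist; compound fluorescence can raise it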
* marks the source's active call; other numbers are inactive results; & = joins results of further samples. This is a subset, so the mix of outcomes need not match the whole.

SMILES	NPYLR7 agonist	NPYLR7 agonist max-min
CC1(c2ccc(OC(F)F)cc2)NC(=O)N(Cc2ccc(Cl)cc2)C1=O (stereo not drawn)	19	14
Cn1nnc2c(SCC(=O)NCc3ccc(F)cc3)ncnc21	-1	15
CC(C)Cn1c(CCNC(=O)C2CCCCC2)nc2ccccc21	-10	-13
O=C1c2cccc(O)c2C(=O)c2cccc(O)c21	-2	-8
CCOC(=O)c1c(C)[nH]c(C(=O)COC(=O)COc2cc(C)cc(C)c2)c1C	3	5
O=C(NC1CC1)c1cn(-c2ccccc2)nc1-c1cccnc1	7	6
COc1ccccc1NC(=O)C(CCSC)N1C(=O)C2CCCCC2C1=O (stereo not drawn)	-1	-4
NCC1Cc2cc(-c3cncc(C(=O)N4CCOCC4)n3)cc(Cl)c2O1 (stereo not drawn)	-4&3	-6&3
O=C(NCCOc1ccc2nnc(-c3ccccc3)n2n1)c1ccccc1	-6	-12
COc1ccc(OC)c(S(=O)(=O)Oc2cccc3ccccc23)c1	22	18
COC(=O)c1ccc(Cl)c(NC(=O)c2ccc(Br)cc2F)c1	4	3
CCC(CO)Nc1nc(Nc2cc(C)ccc2C)c2nccnc2n1 (stereo not drawn)	9	12
COc1ccc(C2Nc3ccccc3C(=O)N2c2ccccc2)cc1COc1ccc(NC(C)=O)cc1 (stereo not drawn)	-7	-6
COc1cc(OC)c(C(=O)OC2CC(C)CC(C)C2)cc1OC (stereo not drawn)	9	5
Cc1cccnc1C(NC(=O)C1CCN(CCOc2ccc(F)cc2)CC1)c1ccc(F)cc1 (stereo not drawn)	6	10
Cc1occc1C(=O)N(C)C(Cc1ccccc1F)C1CCN(C(=O)c2cc3ccccc3o2)CC1 (stereo not drawn)	14	1
Cc1cc(C)n2ncc(C3CC(=O)Nc4c3c(-c3cccnc3)nn4C)c2n1 (stereo not drawn)	0	-5
Nc1ncn(C2O[C@H](CO)[C@@H](O)[C@H]2O)c(=O)n1 (stereo partly drawn)	-2	-6
CC(c1ccccn1)N(C)Cc1ccc(-c2ccccn2)cc1 (stereo not drawn)	5	4
CCOc1cccc(-c2ccccc2C(N)=O)c1	-3	-2
CCCCOc1ccc(-c2nc(C=Nc3ccc(I)cc3)c(O)o2)cc1	-1	-6
CCN1Cc2ccccc2CC1C(=O)NCc1cnn2ccccc12 (stereo not drawn)	2	-3
COc1ccc(OC2CCN(C(=O)C3CC3)CC2)c(C(=O)NCC[C@@H]2C[C@@H]3C=C[C@H]2C3)c1	21	10
CN(Cc1nccn1CC(F)(F)F)c1ncnc2cc(Cl)ccc12	2	0
N#CC=CN1CCN(C(=O)c2ccco2)CC1	5	3
Cn1c(C(=O)N2CCc3cnccc32)cc2cc(C(F)(F)F)ccc21	0	1
COc1cn(CC(=O)Nc2cccc(C)c2C)c(CSc2ccc(C)cc2)cc1=O	-4	-9
CCc1nnc2sc(CCc3ccccc3)nn12	2	0
Cc1ccc(NC(=O)N2CCN(c3nc(Cc4ccccc4)nc4c3cnn4-c3cccc(Cl)c3)CC2)cc1	17	24
COCCN(CC(=O)N(CCc1ccc(OC)c(OC)c1)Cc1ccco1)C(=O)Nc1ccc(Cl)cc1	-5	-2
Cc1nc(CCNC(=O)N2CCOCC2C)cs1 (stereo not drawn)	-6	-6
CC(C)c1ocnc1C(=O)NCC(C)(O)C(C)C (stereo not drawn)	3	1
Cc1ccc(C)c(NC(C)C(=O)N2CCN(c3ccccc3)CC2)c1 (stereo not drawn)	6	4
c1ccc(-c2cc3c(-n4nnc(-c5cccnc5)n4)ncnc3s2)cc1	10	10
CC1CN(CC2CCCN2C(=O)Nc2ccccc2Cl)CC(C)O1 (stereo not drawn)	2	1
CC(NC(=O)C(c1ccccc1)c1ccccc1)C(=O)N1CCCCC1 (stereo not drawn)	-4	-6
CC(C)(C)OC(=O)NC1CONC1=O (stereo not drawn)	1	0
CC(C)N(CC(=O)N(Cc1cccn1Cc1ccc(Br)cc1)C1CCCCC1)C(=O)/C=C/c1ccccc1	-6	6
O=C(NN1C(=O)/C(=C/c2cccnc2)SC1=S)c1ccc(OC(F)F)cc1	0	-1
O=C(NCc1cccnc1-n1ccnc1)C1CCCN(Cc2ccco2)C1 (stereo not drawn)	1	0
CCOC(=O)c1c(C)n(-c2ccc(C)cc2C)c2c1cc(O)c1ccccc12	2	4
Cc1nc(CSCC(=O)Nc2ccc(CN3CCCC(C)C3)cc2)cs1 (stereo not drawn)	0	-7
CC(C)C(NC(=O)C1=Cc2ccccc2OC1)c1ccc(F)cc1 (stereo not drawn)	-2	-2
FC(F)(F)c1cccc(Cc2noc(CN3CCOc4ccccc4C3)n2)c1	15	4
COc1cccc(C(=O)Nc2cccc(C3SCC(=O)N3c3ccccc3C(C)C)c2)c1 (stereo not drawn)	3	20

Part of the list above, in CSV form.
Structure,NPYLR7 agonist,NPYLR7 agonist max-min
CC(C)C(NC(=O)C1=Cc2ccccc2OC1)c1ccc(F)cc1 (stereo not drawn),-2,-2
CC(C)c1ocnc1C(=O)NCC(C)(O)C(C)C (stereo not drawn),3,1

The list goes on:
SMILES	NPYLR7 agonist	NPYLR7 agonist max-min
CCc1ccc(S(=O)(=O)Nc2cccc(-c3ccc(OC)nn3)c2)s1	1	12
CCOc1ccccc1C(=O)Nc1ccc(N2CCN(C(=O)CCCC(=O)OC)CC2)nc1	3	0
Cc1c(C)n2c3c(=O)n(Cc4ccccc4F)c(=O)n(C)c3nc2n1Cc1ccco1	3	5
COc1ccc(C(=O)CCC(=O)N2CCC(n3nccc3NC(=O)CC(C)C)CC2)cc1	3	5
Cc1cccc(CN(CCC(C)C)CC(O)COc2ccc(Cl)cc2)c1 (stereo not drawn)	21	30
Cc1oc2cc(O)ccc2c(=O)c1Oc1ccccc1	-1	-7
CCN(CC)S(=O)(=O)c1ccc(C(=O)Nc2c3c(nn2-c2cccc(C)c2C)CSC3)cc1	2	-2
O=C(O)c1ccc(N2C(=O)/C(=C/c3ccc(-c4cc(Cl)ccc4Cl)o3)C=C2c2ccccc2)cc1	-1	5
CN(C)CCNC(=O)c1cnn(CC(F)(F)F)c1-c1ccccc1	-3	-2
NNCCc1ccccc1	-2&0&-14&-11&1&1	-7&-1&-20&-18&21&-2
O=C(Cn1ccn2nc(-c3ccccc3)cc2c1=O)Nc1cc(C(F)(F)F)ccc1Cl	2	1
Clc1ccccc1CNCC1CC(c2ccccc2Cl)=NO1 (stereo not drawn)	-2	-3
Fc1ccc(C2NC(=S)NC3=C2N2CCC3CC2)cc1 (stereo not drawn)	-1	-5
C#CCn1c(=NC(=O)CN2C(=O)CCC2=O)sc2cc3c(cc21)OCCO3	-1	-2
CCc1cccc2c(C(CC(=O)N(CCN(C)C)Cc3ccccc3)c3ccccc3OC)c[nH]c12 (stereo not drawn)	-1	-1
CN1C(=O)C[C@@H](C(=O)N2CCN(c3c(Cl)cncc3Cl)CC2)[C@@H]1c1cccnc1	-1	1
O=C1c2ccccc2C(=O)N1CC(=O)N(Cc1ccccc1)c1cccc([N+](=O)[O-])c1	-8	-15
CC(=O)Oc1ccccc1Cn1cc(C(=O)NCc2ccco2)sc1=O	8	3
COc1cccc(CN2CCN(c3ccccc3OC)C(=O)C2C)c1 (stereo not drawn)	13	15
COC(=O)Cc1c(C(=O)OC)sc(N)c1C(=O)OC	-2	-2
O=C(CNc1ccc(SC(F)F)cc1)NCc1ccccc1Cl	-1	1
Cc1nc2c(c(=O)n1C)CCN(C(=O)C[C@@H]1C[C@@H]3C=C[C@H]1C3)CC2	-5	-5
O=C(CCC1(Cc2cccs2)CCC(=O)N1)NC1Cc2ccccc2C1 (stereo not drawn)	5	2
O=C(NC1CC1)C1CNCCN1C(=O)c1ccccc1Oc1ccccc1 (stereo not drawn)	-2	-6
CCOc1cccc(NC(=O)C2CC(=O)N(C)C(=Nc3ccc(F)cc3)S2)c1 (stereo not drawn)	-1	-2
c1ccc2oc(-c3nc(N4CCCCCC4)c4ccccc4n3)cc2c1	-3	7
CCOC(=O)C1(Cc2ccccc2C)CCCN(C(=O)CSc2nnc(C)s2)C1 (stereo not drawn)	4&3	4&1
CCOC(=O)c1[nH]c(CSCC(=O)c2cc(C)n(C)c2C)c(C(=O)OCC)c1C	4	5
Cn1c(=O)c2c(-c3cccc([N+](=O)[O-])c3)n(Cc3ccccc3)cc2n(C)c1=O	-13	-21
CC1(C)CC(=O)c2c(oc3ccc(NS(=O)(=O)c4cccc5ccccc45)cc23)C1	-6	-7
N#CC(C#N)=C/C=C(/Cl)c1ccccc1	4	0
O=C1CC(C(F)(F)F)N(C(=O)CN2CCN(c3ccc(O)cc3)CC2)c2ccccc2N1 (stereo not drawn)	3	2
COC(=O)c1ccc(C)c(-n2c(N)c(C(=O)NCc3ccccc3)sc2=S)c1	8	-3
Cc1ccc(C(NC(=O)Cc2nc(C)sc2C)c2ccncc2)cc1 (stereo not drawn)	-3	-9
O=C1NC(=Nc2ccccc2)S/C1=C\c1ccc(-c2ccc(Cl)cc2)o1	-2	-4
COCCNC(=O)C(NC(=O)c1cccc(OC)c1)C1CCN(C(=O)c2ccc(Cl)cc2)CC1 (stereo not drawn)	-5	-4
Cc1ccc(-c2ccnc(NCC(C)N3CCN(C)CC3)n2)c(C)n1 (stereo not drawn)	-1	-2
O=C(NCCNC(=O)C1CCN(C(=O)c2ccccc2Cl)CC1)c1ccccc1	1	14
CC1CCc2c(sc(NS(=O)(=O)c3cccc(C(F)(F)F)c3)c2C(N)=O)C1 (stereo not drawn)	-1	-3
COc1cccc(C(=O)Nc2cccc(-c3nc4cc(C)ccc4o3)c2)c1	-7	-11
Cn1nc2c(c1NC(=O)c1cccc(N3C(=O)CCC3=O)c1)CCC2	4	5
O=[N+]([O-])C1=Cc2ccccc2OC1c1ccc2c(c1)OCO2 (stereo not drawn)	7	4
COc1cc(CNC(=O)c2ccc(Br)o2)cc(OC)c1OC	24	10
C=CCNc1nc(C(=O)O)cs1	3	3
CCOC(=O)CCC(=O)N(Cc1c(C)nn(-c2cccc(F)c2)c1N1CCN(C(C)C)CC1)C(C)C	1	2

Entries of single compounds, looked up by structure. Order of values: NPYLR7 agonist | NPYLR7 agonist max-min
`Cn1c(C(=O)N2CCc3cnccc32)cc2cc(C(F)(F)F)ccc21` as listed: 0 | 1
`COC(=O)c1ccc(Cl)c(NC(=O)c2ccc(Br)cc2F)c1` as listed: 4 | 3
`Cn1c(=O)c2c(-c3cccc([N+](=O)[O-])c3)n(Cc3ccccc3)cc2n(C)c1=O` as listed: -13 | -21
`Cc1nc2c(c(=O)n1C)CCN(C(=O)C[C@@H]1C[C@@H]3C=C[C@H]1C3)CC2` as listed: -5 | -5
`CCOC(=O)C1(Cc2ccccc2C)CCCN(C(=O)CSc2nnc(C)s2)C1` (stereo not drawn) as listed: 4&3 | 4&1

Other entries.
SMILES	NPYLR7 agonist	NPYLR7 agonist max-min
COCCNC(=O)CN1Cc2ccc(Nc3cc(C)nn3C)nc2C1=O	2	-1
C=CCc1c(NCCO)nc(C)[nH]c1=O	2	2
CN1CCCn2nc(C(=O)NCCn3nnc4ccccc43)cc2C1	5	0
Cc1cc(NS(=O)(=O)c2ccc(C(=O)O)cc2C)ccc1C(=O)O	-8	-10
COc1ccc(OC)c(C2NC(=O)CCC2[N+](=O)[O-])c1 (stereo not drawn)	-7	-16
Cc1nc(C)c(CNc2ccn(CCc3ccncc3)n2)s1	4	1
COc1ccc(N2CCCN(C(=O)c3cc(Cl)c[nH]3)CC2)cc1	-9	-13
CCCC12CN(C(=O)CCC(=O)c3ccc(SC)cc3)CC1C(=O)NC(=O)N2 (stereo not drawn)	-4	-13
Cc1ccc(/C=N\Nc2nnc(C)n2N)cc1	-17	-23
Cc1cccc(NS(=O)(=O)c2cc(S(C)(=O)=O)ccc2Cl)c1C	5	2
O=C(NCc1ccccc1F)C(C1CCCC1)N1CCN(C(=S)Nc2ccc(F)cc2)CC1 (stereo not drawn)	-13	-10
N=C1c2c(cc(=O)n3c2[nH]c2ccccc23)CN1Cc1ccco1	1	-2
CC(O)CC(C)CNC(=O)c1ccc(S(=O)(=O)C(F)(F)F)cc1 (stereo not drawn)	-3	32
COc1ccc(C(C)(NC(C)=O)c2nc(-c3cccc4cccnc34)cs2)cc1 (stereo not drawn)	6	3
O=C(c1cc2n(n1)CCNC2)N1CCCC(OCc2ccccn2)C1 (stereo not drawn)	3	1
COc1cc(CN2C(=O)NC3(CCCCCC3)C2=O)ccc1OC(F)F	4	2

Three of the compounds above, with two lines to a compound:
Sequence of screens – NPYLR7 agonist | NPYLR7 agonist max-min
> O=C(c1cc2n(n1)CCNC2)N1CCCC(OCc2ccccn2)C1 (stereo not drawn)
 : 3 | 1
> C=CCc1c(NCCO)nc(C)[nH]c1=O
 : 2 | 2
> COCCNC(=O)CN1Cc2ccc(Nc3cc(C)nn3C)nc2C1=O
 : 2 | -1

Source: PubChem
